# GIRK2 act = GIRK2 channel activation. HEK293-GIRK2 thallium flux, Thallos fluorescence. calls only for hits at 25 µM. actives 0.05% (n = 63,000);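 active = among the strongest 0.2% of first-round signals and kept after retests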;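 also: first round at about 10 µM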
# Target sequence (P48051 whole entry, looked up): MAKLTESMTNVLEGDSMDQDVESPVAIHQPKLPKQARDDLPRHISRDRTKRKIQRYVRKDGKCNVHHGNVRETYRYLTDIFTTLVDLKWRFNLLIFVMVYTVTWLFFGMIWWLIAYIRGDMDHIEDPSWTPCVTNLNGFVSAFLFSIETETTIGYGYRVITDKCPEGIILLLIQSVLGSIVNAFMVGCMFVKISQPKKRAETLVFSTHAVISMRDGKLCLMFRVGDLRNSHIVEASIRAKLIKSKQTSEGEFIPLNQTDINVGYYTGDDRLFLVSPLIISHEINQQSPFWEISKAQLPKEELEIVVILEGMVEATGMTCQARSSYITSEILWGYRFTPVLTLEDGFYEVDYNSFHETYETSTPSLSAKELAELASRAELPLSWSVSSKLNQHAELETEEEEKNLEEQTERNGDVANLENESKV
# Calls only; i = inactive. This is a subset. The share of hits here may be higher or lower than overall.
SMILES,GIRK2 act
CCC(C(=O)NCCOC)n1cc(-c2nc(-c3cnccn3)no2)ccc1=O (stereo not given),i
Cc1nc(C)c(-c2ccc(=O)n(CCNC(=O)c3cccs3)n2)s1,i
O=C(c1c(F)cccc1Cl)N1CCN(c2ccc(-n3ccnc3)nn2)CC1,i
O=S(=O)(/C=C/c1ccccc1)NCC1CCN(S(=O)(=O)c2cccnc2)CC1,i
COc1cccc(CNC(=O)Cn2cnc3c(c2=O)CN(Cc2ccc(C)cc2)CC3)c1,i
COc1ncccc1C(=O)NCc1sc(-c2ccccc2Cl)nc1C,i
Cc1ccc(Cl)cc1N1CCN(S(=O)(=O)c2nn(C)cc2C(=O)Nc2cccc(C#N)c2)CC1,i
CC(O)(CCc1ccccc1)CNC(=O)C(=O)NCc1cccs1 (stereo not given),i
COc1ccc(C(C)NC(=O)c2ccsc2)cc1 (stereo not given),i
O=C(/C=C\c1cccs1)Nc1ccccc1NC(=O)c1ccccc1C(F)(F)F,i
CS(=O)(=O)c1ccc(NC(=O)c2ccc(Cl)c(S(=O)(=O)N3CCCCC3)c2)cc1,i
COc1cccc(NC(=O)Cn2cccc(-c3nc(-c4ccccc4)no3)c2=O)c1,i
CCOC(=O)C(=O)N1CCN(C(=O)C2CC2c2ccccc2)CC1 (stereo not given),i
CCCCN1CC(c2nc3ccccc3n2CCOc2ccc(Cl)c(C)c2)CC1=O (stereo not given),i
CC(=O)c1cc2c(=O)c3c(C(=O)O)c(O)c(O)cc3oc2c(C(C)=O)c1-c1coc2cc(O)c(O)c(C(=O)O)c2c1=O,i
CN(C)C(CNC(=O)C(=O)NCc1cccs1)c1ccc2c(c1)CCO2 (stereo not given),i
O=C(CCc1nnc2c(N3CCCCC3)nc3ccccc3n12)NCc1ccc(F)cc1,i
NC(=O)c1ccccc1OCC#CCNC(=O)c1cc2ccccc2oc1=O,i
O=C(NCc1cccs1)c1sccc1S(=O)(=O)N1CCN(c2ccccc2Cl)CC1,i
Cc1nn(-c2ccccc2)c2ncc(C(=O)N3CCN(C)CC3)c(Cl)c12,i
COc1cccc(CSc2nc(CC(=O)Nc3c(C)cc(C)cc3C)cc(=O)[nH]2)c1,i
Cc1oc2c3c(ccc2c(=O)c1-c1ccc(Cl)cc1)OCN(Cc1ccco1)C3,i
CCc1nnc(C2CCN(S(=O)(=O)c3ccc(F)cc3)CC2)s1,i
O=C(CSc1ncc(CO)n1Cc1ccc(Cl)cc1)NCc1ccccc1Cl,i
COc1ccc(Br)c(C(=O)NCC(c2cn(C)c3ccccc23)N(C)C)c1 (stereo not given),i

# More records:
SMILES,GIRK2 act
COc1ccccc1OCC(=O)N(CCn1cccn1)c1nc2c(Cl)cccc2s1,i
N#C/C(=C/Nc1ccc(C(N)=O)cc1)c1nc(-c2cc3c(ccc4ccccc43)oc2=O)cs1,i
O=C(C1=C(O)C(=O)N(CCCn2ccnc2)C1c1ccc(F)cc1)c1cc2ccccc2o1 (stereo not given),i
COc1ccc2c(c1)c(CC(=O)N[C@@H](C)c1ccncc1)c(C)n2C(=O)c1ccc(Cl)cc1,i
COc1ccc(OC)c(NC(=O)c2nc(SC)ncc2Cl)c1,i
Cc1nc(N2CCN(C(=O)c3ccc4c(c3)OCO4)CC2)cc(-n2cccn2)n1,i
CCc1nc(-c2ccc(-n3ccc(C(=O)NCc4ccccc4F)n3)cc2)no1,i
CN(CC(=O)Nc1cccc2nsnc12)c1nc2ccccc2s1,i
COC(=O)c1ccc(NC(=O)Cn2ncn3nc(-c4ccccc4)cc3c2=O)cc1,i
CCOC(=O)C1CCCN(c2nc3c(S(=O)(=O)c4ccc(C)cc4)nnn3c3ccccc23)C1 (stereo not given),i
COc1ccc(-c2ccc(=O)n(CCCC(=O)NC3CCCC3)n2)cc1,i
Cc1cccc(-c2nc(Cn3c(=O)n(C(C)C)c(=O)c4ccccc43)c(C)o2)c1,i
C[C@H](CCCO)[C@H]1CC[C@H]2[C@@H]3[C@H](O)C[C@H]4C[C@H](O)CC[C@]4(C)[C@H]3C[C@H](O)[C@]12C,i
CC(=O)Nc1nsc(NC(=O)c2nnn(-c3ccc4noc(-c5ccc(Cl)cc5)c4c3)c2C)n1,i
COc1ccc(CNC(=O)Cc2cc(=O)[nH]c(SCc3ccc(F)cc3)n2)cc1,i
O=C(NCC(O)Cc1ccccc1)c1ccc(OC(F)(F)F)cc1 (stereo not given),i
O=C(Nc1ccc(F)cc1)Nc1ccc(CN2CCN(c3ccccn3)CC2)cc1,i
O=C(Nc1ccc2c(c1)C(=O)N1CCCCC1CCO2)C1CC=CCC1 (stereo not given),i
COCc1ccc(C(=O)Nc2cc(C)nc3c(F)cc(F)cc23)o1,i
CCOc1ccc(-c2noc(Cn3c(=O)n(-c4ccc(F)cc4)c(=O)c4sccc43)n2)cc1OC,i
Cc1cc(C)nc(Nc2nc(C(=O)N3CCN(c4ccccc4F)CC3)cs2)n1,i
COc1ccccc1-c1ccc(N2CCN(S(=O)(=O)c3cccc(Cl)c3)CC2)nn1,i
N#C/C(=C\c1ccc(Br)s1)c1nc(-c2ccccc2)cs1,i
COc1nn(C)cc1C(=O)NCC#CCOc1ccc2c(c1)OCO2,i
O=C(CCCCn1c(=O)c2ccccc2n(CC(=O)NC2CCCCC2)c1=O)NCc1ccco1,i

# (continued)
SMILES,GIRK2 act
NS(=O)(=O)c1ccc(CCNC(=O)c2cnc3n(c2=O)CCS3)cc1,i
COc1ccc(C)cc1S(=O)(=O)N1CCC(Cn2ccnc2)CC1,i
CCOC(=O)N1CCN(c2ncc(C(=O)Nc3ccc(OC)cc3)c(N)n2)CC1,i
COc1ccc(N2CC(c3nc4ccccc4n3CCOc3ccccc3OC)CC2=O)cc1 (stereo not given),i
CCCCNC(=O)c1cccc(-n2ccnc2SCC(=O)Nc2ccc(C(C)=O)cc2)c1,i
O=C(c1cccc(Cl)c1)N1CCC(COCc2ccc(F)cc2)CC1,i
Cc1ccccc1-c1noc(CSc2nc3[nH]ncc3c(=O)n2-c2ccc(F)c(F)c2)n1,i
CCn1cc(C(=O)N2CCC(c3nnc(-c4ccco4)o3)CC2)c(=O)c2ccc(C)nc21,i
CC(=O)N(Cc1cccnc1)c1nc2c(C)cc(Cl)cc2s1,i
COc1ccc(-n2nnc3c(N4CCN(C(=O)c5cc6ccccc6o5)CC4)ncnc32)cc1,i
O=S(=O)(Cc1ccccc1)Nc1cccc(-c2cnc3n2CCC3)c1,i
COc1ccc(-c2coc3cc(Nc4ccc(OC)cc4OC)ccc3c2=O)cc1,i
Cc1ccc(NC(=O)c2cc([N+](=O)[O-])ccc2Cl)cc1N1CCCC1=O,i
Cc1nnsc1C(=O)N1CCc2nc(NC(=O)C3CCCO3)sc2C1 (stereo not given),i
CN(C)S(=O)(=O)c1ccc(C(=O)N2CCC(Oc3cnccn3)CC2)cc1,i
O=C(CSc1nnc(N2CCN(c3ccccc3)CC2)s1)Nc1ccc(Cl)cc1,i
CC(C)C(O)C(=O)O (stereo not given),i
CCCc1cc(=O)oc2cc(C)cc(OC(C)C(=O)NCCC(=O)O)c12 (stereo not given),i
Cc1ccnc2c1NC(=O)c1cccnc1N2C1CC1,i
COc1ccc(OCC(O)Cn2c(NCc3cccnc3)nc3c2c(=O)n(C)c(=O)n3C)cc1 (stereo not given),i
O=c1cc(N2CCOCC2)oc2c(-c3ccccc3)cccc12,i
O=C(CCc1csc(NC(=O)Nc2ccccc2)n1)NCCc1ccccc1,i
COc1ccc(/C=C2\Oc3cc(OCCN4CCCCC4CCO)ccc3C2=O)cc1 (stereo not given),i
CC(=O)c1ccc(NC(=O)Cn2cccc(S(=O)(=O)N3CCCCCC3)c2=O)cc1,i
CC(c1ccccc1)n1c(C2CC(=O)N(Cc3ccccc3)C2)nc2ccccc21 (stereo not given),i

# More compounds.
SMILES,GIRK2 act
NC(=O)c1ccccc1OCC#CCNC(=O)c1ccc(-c2ccccc2)cc1,i
COc1cc(C(C)=O)ccc1OCC(=O)NCCOc1cc(N2CCN(C)CC2)ncn1,i
COc1ccc(Cl)cc1NC(=O)CN1CCN(S(=O)(=O)N2CCC(C)CC2)CC1,i
COc1ccc2sc(N(CCN3CCOCC3)C(=O)c3nc4ccccc4s3)nc2c1,i
CCOC(=O)CC1=CC(=O)N(CC(=O)NCc2ccc(OC)cc2)c2ccccc2N1,i
O=C(Nc1nc(C(=O)Nc2nccs2)co1)c1cnccn1,i
O=C(Cn1nc2ccc(-c3ccccc3)nn2c1=O)Nc1ccc(Br)cc1,i
COc1ccccc1NC(=O)C1=C(C)Nc2ncnn2C1c1ccc(OC(F)F)cc1 (stereo not given),i
CC(O)CN1CCN(C(=O)NCc2cccc3ccccc23)CC1 (stereo not given),i
COc1cccc(OC)c1C(=O)NCCOc1cc(C)cc(C)c1,i
CCOC(=O)Cc1csc(NC(=O)CN(C)c2nc3c(C)ccc(C)c3s2)n1,i
CCN(CC)C(=O)Cn1cc(C(=O)C(=O)NCc2ccccc2OC)c2ccccc21,i
O=C(Nc1nc2c(s1)CN(C(=O)Nc1ccc(Cl)c(Cl)c1)CC2)c1ccoc1,i
O=C(/C=C/c1ccco1)N1CCN(C(=O)c2cnn3ccccc23)CC1,i
Cc1cccc(NC(=O)CCCS(=O)(=O)Cc2ccccc2)c1C,i
COc1cccc(-c2nc(CSc3nc4ccccc4c(=O)n3Cc3ccccc3)c(C)o2)c1OC,i
COc1ccccc1/C=C1\SC(=S)N(c2ccccc2OC)C1=O,i
CC(C)(C)c1ccc(C(=O)N2CCN(c3ccc4nnc(-c5ccco5)n4n3)CC2)cc1,i
COc1ccc(N2CCCn3c2nc2c3c(=O)n(CC(N)=O)c(=O)n2C)cc1,i
Cc1ccc(C)c(S(=O)(=O)NCCOc2ccc3c(c2)OCO3)c1,i
Cc1cc(C)c2c(c1)C(=O)C(=O)N2CCOc1ccccc1C,i
O=C(NCC(F)(F)F)C1CCN(C(=O)Cn2cccn2)CC1,i
Cc1ccc(C)c(C(=O)NCC(O)c2ccoc2)c1 (stereo not given),i
O=C(C1CC=CCC1)N1CCC(Oc2cnccn2)CC1 (stereo not given),i
Cn1nc(-c2ccc(F)cc2)cc1C(=O)NCC(C)(O)c1ccco1 (stereo not given),i

# The closing two compounds of the part above open the next one:
SMILES,GIRK2 act
O=C(C1CC=CCC1)N1CCC(Oc2cnccn2)CC1 (stereo not given),i
Cn1nc(-c2ccc(F)cc2)cc1C(=O)NCC(C)(O)c1ccco1 (stereo not given),i
CC(C)(C)OC(=O)N1CCN(C(=O)c2cnn3c(-c4ccncc4)ccnc23)CC1,i
SCc1ccc2ccccc2c1,i
Cc1c(Cl)ccc2sc(N(Cc3ccncc3)C(=O)c3ccco3)nc12,i
O=c1c([N+](=O)[O-])c(NCc2cccnc2)c2ccccc2n1-c1ccccc1,i
Cc1noc(-c2ccc(N3CCCC(C(=O)N4CCC(C(N)=O)(N5CCCCC5)CC4)C3)nc2)n1 (stereo not given),i
O=C(Nc1cccc(-c2nc3ccccc3[nH]2)c1)c1cc(-c2ccco2)on1,i
CCCn1c(=O)c2c(nc3n(-c4ccc(OC)cc4OC)c(C)c(C)n23)n(C)c1=O,i
O=C(Nc1cccs1)N1CC(c2nc(-c3cccc(Cl)c3)no2)C1,i
Cc1ccc(Cl)cc1N1CCN(c2ncc(S(=O)(=O)c3ccccc3)c(N)n2)CC1,i
CCOCCCNC(=O)c1nnn(-c2ccc(C(F)(F)F)cc2)n1,i
O=C(Nc1nnc(-c2ccsc2)o1)C1CCCC1,i
CCCN1C(=O)CCc2cc(NC(=O)c3ccc(OC)c(OC)c3)ccc21,i
CCCCCC(C)N1CC(O)=C(c2nc3ccccc3[nH]2)C1=N (stereo not given),i
Cc1ccccc1OCC(=O)NCC1CCN(c2cnccn2)CC1,i
COc1cccc(CSc2nc(C)c(CC(=O)N3CCC(C(N)=O)CC3)c(=O)[nH]2)c1,i
COc1cccc(NC(=O)c2cc(=O)c3cc(C)ccc3o2)c1,i
CCOC(=O)c1cnn2ccc(NC(=O)c3ccccc3Br)cc12,i
CCOc1ccc(-c2nnc(NC(=O)Nc3ccccc3C(F)(F)F)o2)cc1,i
CONC(=O)c1ccc(OCc2nc(-c3ccco3)cs2)cc1,i
O=C(Nc1nc(-c2ccco2)cs1)c1ccc2c(c1)ncn2-c1ccccc1,i
O=C(Cn1cccc(S(=O)(=O)N2CCCC2)c1=O)N1CCN(c2ccc(F)cc2)CC1,i
Cc1ccc(NC(=O)CSc2nc3c(sc(=S)n3-c3ccc(Cl)cc3)c(=O)[nH]2)cc1F,i
CCOc1ccc(OCCNS(C)(=O)=O)cc1,i
CCc1cccc(NC(=O)CN2CCC(c3nc(-c4ccc(OC)cc4)no3)CC2)c1,i
CC(C)c1ccc(/C=C(\C#N)c2nc3ccccc3o2)cc1,i
CCN(CC)CCN1C(=O)c2oc3ccccc3c(=O)c2C1c1ccc(Cl)c(Cl)c1 (stereo not given),i
O=S(=O)(c1ccc(Cl)cc1)N1CCC(c2nnc(-c3ccco3)s2)CC1,i
Cc1ccc(NC(=O)CSc2nnc3n(C)c(=O)c4ccc(C(=O)NC5CCCC5)cc4n23)cc1,i

# Exported with values ahead of the structure: entries from further up.
GIRK2 act	Structure
i	CC(C)(C)OC(=O)N1CCN(C(=O)c2cnn3c(-c4ccncc4)ccnc23)CC1
i	SCc1ccc2ccccc2c1
i	Cc1c(Cl)ccc2sc(N(Cc3ccncc3)C(=O)c3ccco3)nc12
i	O=c1c([N+](=O)[O-])c(NCc2cccnc2)c2ccccc2n1-c1ccccc1
i	Cc1noc(-c2ccc(N3CCCC(C(=O)N4CCC(C(N)=O)(N5CCCCC5)CC4)C3)nc2)n1 (stereo not given)
i	O=C(Nc1cccc(-c2nc3ccccc3[nH]2)c1)c1cc(-c2ccco2)on1
i	CCCn1c(=O)c2c(nc3n(-c4ccc(OC)cc4OC)c(C)c(C)n23)n(C)c1=O
i	O=C(Nc1cccs1)N1CC(c2nc(-c3cccc(Cl)c3)no2)C1
i	Cc1ccc(Cl)cc1N1CCN(c2ncc(S(=O)(=O)c3ccccc3)c(N)n2)CC1
i	CCOCCCNC(=O)c1nnn(-c2ccc(C(F)(F)F)cc2)n1
i	O=C(Nc1nnc(-c2ccsc2)o1)C1CCCC1
i	CCCN1C(=O)CCc2cc(NC(=O)c3ccc(OC)c(OC)c3)ccc21
i	CCCCCC(C)N1CC(O)=C(c2nc3ccccc3[nH]2)C1=N (stereo not given)
i	Cc1ccccc1OCC(=O)NCC1CCN(c2cnccn2)CC1
i	COc1cccc(CSc2nc(C)c(CC(=O)N3CCC(C(N)=O)CC3)c(=O)[nH]2)c1
i	COc1cccc(NC(=O)c2cc(=O)c3cc(C)ccc3o2)c1
i	CCOC(=O)c1cnn2ccc(NC(=O)c3ccccc3Br)cc12

# High-throughput results (PubChem BioAssay)
